High-throughput results from PubChem.
BasE inh – blocks the Acinetobacter baumannii siderophore enzyme BasE. AID 485350. inhibition, % (no concentration beside the values). purified BasE, fluorescence polarization binding displacement. 84,000 compounds, 0.1% hits;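 active means both replicates above 25% with normal brightness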;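 further: 0% = negative plate control signal and 100% = positive plate control signal; stock transfer was 100 nL into about 30 µL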
LANA-nucl inh – LANA-nucleosome interaction inhibition; FITC-LANA1-23 / chicken nucleosome fluorescence polarization; stronger effect = lower value; z-score (no concentration beside the values); 51,000 compounds, 0.3% hits;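 active means both repeat wells score below -2 in polarization z-score versus plate sample wells, excluding overly bright wells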;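 further: 100 nL library stock added to about 30 µL; numbers are from one replicate; some results filed as inactive read as strong as hits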
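Material: Purified chicken nucleosomes with FITC-labelled LANA N-terminal peptide (1-23) | Reagent: 50 nM FITC-LANA1-23 probe | Medium: TEN-BT buffer, pH 7.5 | Times: 10–45 min incubation at room temperature | Detection: Fluorescence polarization | Replication: Duplicates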
* = called active by the depositor; · = not tested or not shown. Only part of the results is shown. The share of hits here may be higher or lower than overall.

SMILES | BasE inh | LANA-nucl inh
OCCN(Cc1ccccc1)Cc1cccc(C(F)(F)F)c1 | 0.5 | -0.748
COc1ccccc1N1CCN(C(=O)CSc2nc(C)c(C)c(=O)[nH]2)CC1 | -2.9 | 2.41
CN(Cc1nc2ccccc2c(=O)[nH]1)C(=O)c1cn(-c2ccccc2)nc1-c1cccs1 | 3.0 | ·
CCOC(CSc1nnc2c3ccccc3n(CC)c2n1)OCC | 1.6 | 0.438
CN1C/C(=C/c2ccc(O)cc2)C(=O)/C(=C/c2ccc(O)cc2)C1 | 1.9 | ·
O=C(NC(=S)NCc1ccccc1)C1CCCC1 | 0.6 | 1.4
CCCCN(CC)C(=O)c1cc2c(=O)n3ccccc3nc2n1C | 1.3 | 0.515
COC(OC)c1ccc(C#N)c(SCC(=O)c2ccc(Cl)cc2)n1 | -1.2 | 0.169
CN1CCC(NCCc2ccccc2)CC1 | 0.2 | -0.161
CCn1c(=O)n(CC)c2cc(NC=O)c(Br)cc21 | 2.0 | -0.615
COc1ccc(N/C(N)=N/c2nc(CSc3nc4ccccc4s3)cc(=O)[nH]2)cc1 | 3.4 | ·
Cc1ccc(C(C)(C)CC(=O)O)cc1 | -0.4 | ·

Grouped by structure: the compounds so far with four or more nitrogen atoms.
SMILES | BasE inh | LANA-nucl inh
COc1ccccc1N1CCN(C(=O)CSc2nc(C)c(C)c(=O)[nH]2)CC1 | -2.9 | 2.41
CN(Cc1nc2ccccc2c(=O)[nH]1)C(=O)c1cn(-c2ccccc2)nc1-c1cccs1 | 3.0 | ·
CCOC(CSc1nnc2c3ccccc3n(CC)c2n1)OCC | 1.6 | 0.438
CCCCN(CC)C(=O)c1cc2c(=O)n3ccccc3nc2n1C | 1.3 | 0.515
COc1ccc(N/C(N)=N/c2nc(CSc3nc4ccccc4s3)cc(=O)[nH]2)cc1 | 3.4 | ·

The list continues:
SMILES | BasE inh | LANA-nucl inh
CCOC(=O)CC1c2cc(OCC)c(OCC)cc2CCN1S(C)(=O)=O (stereo not given) | -1.5 | -0.526
O=C(OCc1nc(-c2ccccc2Cl)no1)c1ccc2c(=O)n3c(nc2c1)CCCCCC3 | 2.7 | ·
CC(C)Cc1ccc2c(N)c(C(=O)O)sc2n1 | -5.2 | 0.806
CC(C)CN(C(=O)C1CC1)C1CCS(=O)(=O)C1 (stereo not given) | 0.7 | ·
COc1cc2c(cc1NC(=O)C(C)NCc1ccc3c(c1)OCO3)oc1ccccc12 (stereo not given) | 0.8 | ·
CCCN1CCN(CCCNC(=O)c2cnc(SC)nc2-c2ccccc2)CC1 | -1.5 | 0.255
Cc1ccc(NNC(=O)C(C)(C)O)c(C)c1 | -1.2 | ·
CC1(C)CC(=O)C=C(NCCCNC2CCCCC2)C1 | -0.1 | 0.895
CC/C(C)=N/n1c(-c2ccc3c(c2)NC(=O)CO3)csc1=Nc1ccc(C)cc1 | -2.3 | ·
Cc1ccc(C)c(N2C(=O)CS/C2=N\NC(=O)c2ccc(S(=O)(=O)N3CCCC3)cc2)c1 | -2.3 | 1.28
CSC1=NC2(CCN(C(=O)OC(C)(C)C)CC2)Nc2ccccc21 | -1.2 | 0.225
O=c1cc(Nc2ccccc2)cc[nH]1 | 0.8 | ·
O=C(O)c1ccc(CN2CCc3ccccc3C2)cc1 | -1.6 | ·
O=C(Nc1cc(N2CCCCC2)ncn1)c1ccc(F)cc1 | -0.1 | 0.354
CCc1ccc(N2CC(c3nc4ccccc4n3CC)CC2=O)cc1 (stereo not given) | -1.7 | ·
O=C(CN(C(=O)c1ccc(Cl)nc1)c1ccc2c(c1)OCCO2)NCc1ccco1 | -0.2 | -0.105
Cc1c(Cl)cn2c(=O)cc(CN3CCN(C(=O)c4ccco4)CC3)nc2c1Cl | -1.3 | ·
CC(=NCc1ccc(Cl)c(Cl)c1)c1ccccc1O | -45.0 | ·
Cc1ccccc1N1CCN(S(=O)(=O)c2cccs2)CC1 | -0.1 | -0.55
COc1ccc(-n2c(SCC(N)=O)nc3ccccc3c2=O)cc1 | -0.1 | ·
N#Cc1ccc(NC(=O)c2oc3ccccc3c2CSCc2ccccc2)cc1 | 2.0 | ·
N#CC(C#N)=CNCc1cccs1 | 1.9 | 0.114
O=C1Cc2ccccc2CC(=O)N1 | 1.3 | -2.2
O=C(NCC(O)c1ccccc1)c1ccc(Cl)cc1 (stereo not given) | 0.9 | 0.401
O=C(N1CCC(n2cnc3cccnc32)CC1)N1c2ccccc2Sc2ccccc21 | -3.5 | 1.78
CCOC(=O)c1ccccc1NC(=S)N1CCC(N2CCCCC2)CC1 | 2.0 | -0.97
Cc1cc(C)cc(Oc2coc3cc(OCC(=O)NCc4ccccc4)ccc3c2=O)c1 | -4.5 | ·
CC1=NN(C(=S)c2ccccc2)C(C)(O)C1 (stereo not given) | 1.6 | 0.207
CCn1cc(SCC(=O)N2N=C(c3cccs3)CC2c2ccc(F)cc2)c2ccccc21 (stereo not given) | 2.2 | -0.31
NC(=S)CCN1C(=O)c2ccccc2C1=O | 0.6 | -0.487
CCOc1ccc(CCNC(=O)COc2cccc(-n3cnnn3)c2)cc1OCC | 0.9 | ·
Cc1ccc(S(=O)(=O)N(CCC#N)Cc2ccccc2)cc1 | 0.1 | 0.045
CCC(=O)Nc1ccc(C(=O)N2CCCCC2C)cc1 (stereo not given) | 3.4 | 0.493
O=C(O/N=C1\Cc2ccccc2C1=O)c1cccs1 | 3.0 | 0.129
Cc1ccc(S(=O)(=O)NC(=O)N2c3ccccc3CCc3ccccc32)cc1 | 1.8 | ·
CCC(=O)Nc1ccc(C(=O)CSc2nnc(-c3ccc(O)cc3)n2CC2CCCO2)cc1 (stereo not given) | 3.9 | -0.257
CCCCN1Cc2c(n(CC(=O)c3ccccc3)c3cc(-c4ccccc4)nn3c2=O)C1=O | -1.8 | -0.24
c1ccc(CSc2nnc(CCCCc3nnc(SCc4ccccc4)o3)o2)cc1 | 2.7 | ·
FC(F)(F)c1cccc(-n2cncn2)n1 | -1.5 | 0.479
O=C1CCC(=O)N1c1nccs1 | 2.0 | ·
Cc1ccc(-c2nnc(NC(=O)CCS(=O)(=O)c3ccc(F)cc3)o2)c(C)c1 | 2.5 | 0.074
CSC1CCCCC1(O)CSc1nc2c(cc1C#N)CCCC2 (stereo not given) | 3.5 | -1.02
CCN(C1CCS(=O)(=O)C1)S(=O)(=O)c1ccccc1 (stereo not given) | -1.4 | -1.08
CCn1c(CSc2nc3ccccc3s2)nnc1SCC(=O)c1ccc2c(c1)OCCO2 | 0.8 | ·
CC(C)C(NC(=O)c1ccc(C(C)(C)C)cc1)C(=O)N1CCC1 (stereo not given) | -2.0 | ·
COc1ccc2[nH]c(C(=O)O)cc2c1 | 1.9 | 0.368
CCCNC(=O)C1CN(S(=O)(=O)c2ccc(C)cc2)c2ccccc2O1 (stereo not given) | -0.8 | ·
Cc1c(N=C2NC(=O)C(CC(=O)Nc3ccccc3)S2)c(=O)n(-c2ccccc2)n1C (stereo not given) | 3.0 | 0.74
Cn1c(=O)c(-c2noc(-c3ccccc3)n2)cn(-c2ccccc2)c1=O | -0.5 | ·
Cc1nnc2c3ccccc3nc(Nc3ccc4c(c3)OCO4)n12 | 0.5 | ·
O=C(O)COCC(=O)Nc1ccc(-n2ccc(C(F)(F)F)n2)cc1 | 0.8 | ·
OCCCCn1c(-c2ccccc2)cc2ccccc21 | · | -1.48
Cc1ccc(CNC(=O)C2CCCN(S(=O)(=O)N3CC(C)CC(C)C3)C2)cc1 (stereo not given) | 1.7 | -0.447
Cc1ccc(C(=O)CSc2nnc(-c3cccs3)n2C2CC2)s1 | 2.5 | ·
O=C(O)c1ccccc1C(=O)NCCN1CCNC1=O | 1.1 | ·
NCCNC(=O)c1ccco1 | -0.3 | -1.34
CC(Sc1nc(C2CC2)n(-c2ccccc2)n1)C(=O)Nc1ccnn1C(C)C (stereo not given) | 1.5 | ·
CCOC(=O)/C(C#N)=N/Nc1ccsc1C(=O)OC | 2.0 | 0.207
O=[n+]1c2c(n([O-])c3ccccc31)CCC2 | 1.5 | -0.387
O=c1oc2c(o1)=C(c1ccccc1)S(=O)(=O)C=2c1ccccc1 | 3.8 | ·

Random excerpt: two records from the list
SMILES | BasE inh | LANA-nucl inh
Cc1ccc(C(=O)CSc2nnc(-c3cccs3)n2C2CC2)s1 | 2.5 | ·
Cn1c(=O)c(-c2noc(-c3ccccc3)n2)cn(-c2ccccc2)c1=O | -0.5 | ·

The results go on.
SMILES | BasE inh | LANA-nucl inh
O=C(/C=N/O)Nc1cccc(C(=O)O)c1 | -2.8 | ·
CC(C(=O)N1CCN(Cc2ccccc2)CC1)n1sc2ccccc2c1=O (stereo not given) | 0.4 | -0.364
O=C(NNc1ccc(Cl)cc1)C1CCC1 | 1.9 | -0.27
CCCCCOc1ccc(OC(=O)c2ccncc2)cc1 | -2.2 | 0.584
COc1ccc(-c2noc(CN3CCCC(C(=O)Nc4ccc(F)c(Cl)c4)C3)n2)cc1OC (stereo not given) | -2.1 | 1.17
CSc1scc2c1-c1nc(SCC(=O)c3ccc(Cl)cc3)ncc1CC2 | 1.5 | ·
CN(Cc1nc2ccccc2n1C)c1ccccc1 | 0.7 | -0.881
CCOc1ccc(C(=O)NCCCN2CCCC2=O)cc1 | 1.5 | ·
CNC(=O)c1c(C)csc1NC(=O)C(F)(F)F | 2.1 | ·
CCN(CC)Cn1c(=O)sc2ccccc21 | 0.8 | -0.588
O=C(ON1C(=O)c2cccc3cccc(c23)C1=O)c1cccnc1 | 0.9 | 0.059
O=C(CCn1cccc1)NCCc1ccccc1 | 1.5 | -1.13
Cc1c(C#N)c(NC(=O)CN2CCCC2c2cccs2)n(C2CCCCC2)c1C (stereo not given) | -1.1 | ·
CC(C)(C)n1ncc2c(=O)n(NC(=O)Cc3ccccc3)cnc21 | 0.7 | -1.58
CCCn1c(N)nc2c1c(=O)n(C)c(=O)n2C | 3.9 | ·
O=C(Nc1ccccc1)OC(CN1CCN(c2ccccc2)CC1)C(F)(F)F (stereo not given) | · | -1.54
c1nc(N2CCOCC2)nc2c1CNCC2 | -0.3 | -0.786
COC(=O)c1c(C)nn(-c2ccccc2)c1NC(=O)C(C)Oc1ccc(Cl)cc1 (stereo not given) | -0.8 | ·
S=c1nc(C2CCCCC2)n(-c2ccccc2)[nH]1 | 3.5 | ·
CC[n+]1cccc(-c2nc3ccccc3s2)c1 | 2.0 | ·
Cc1cc(=O)[nH]c(SCC(=O)C2CC2)n1 | 3.2 | -0.795
CCc1ccc(C(=O)NCc2ccc3c(c2)OCO3)cc1 | 1.1 | ·
COC(=O)c1sccc1-c1ccc(CN2CCC(c3ccccc3OC)CC2)o1 | 2.2 | ·
COc1ccc(C2CCCCCN2C(=O)Cc2nn(C)c(=O)c3ccccc23)cc1 (stereo not given) | 4.0 | ·
Cc1cccc(NC(=O)CN2C(=O)CSC2=O)c1 | 2.6 | 0.967
CC(C)Nc1nc(C#N)nc(NC(C)C)n1 | 0.9 | -0.359
Fc1ccc(N=Cc2ccccc2F)cc1 | 0.3 | ·
O=C(CSc1nnc2c(n1)CCCC2)c1ccc(N2CCCC2=O)cc1 | 0.9 | 0.122
CC(C)(C)C(=O)N1CCN(S(=O)(=O)c2ccccc2)CC1 | 0.9 | ·
CC(C)(C)NC(=O)CSc1nnc([C@H](Cc2ccccc2)NC(=O)OC(C)(C)C)o1 | · | 1.17
CC(C)(C)NC(=O)Cn1nc(Cl)nc1Cl | 1.2 | -0.76
CCCN1CNC(=S)N(c2ccccc2OC)C1 | 3.6 | -0.905
COc1ccc(NC(=O)Nc2ccccn2)cc1 | 1.9 | -0.444
CCC(N)c1ccc(C)cc1 (stereo not given) | 0.9 | ·
Cc1ccc2nc(NC(=O)C3CCCN(S(=O)(=O)c4ccc(Br)s4)C3)sc2c1 (stereo not given) | 0.0 | 0.271
Cc1c(C(N)=O)cnn1-c1ccc(Cl)cc1 | 3.4 | ·

Single records, from the list above:
Record of CCC(N)c1ccc(C)cc1 (stereo not given) = BasE inh: 0.9; LANA-nucl inh: ·
Record of Cc1cccc(NC(=O)CN2C(=O)CSC2=O)c1 = BasE inh: 2.6; LANA-nucl inh: 0.967

Back to the main list; the four compounds before the break are reprinted first.
SMILES | BasE inh | LANA-nucl inh
COc1ccc(NC(=O)Nc2ccccn2)cc1 | 1.9 | -0.444
CCC(N)c1ccc(C)cc1 (stereo not given) | 0.9 | ·
Cc1ccc2nc(NC(=O)C3CCCN(S(=O)(=O)c4ccc(Br)s4)C3)sc2c1 (stereo not given) | 0.0 | 0.271
Cc1c(C(N)=O)cnn1-c1ccc(Cl)cc1 | 3.4 | ·
Cn1c(N)c(C(=O)COC(=O)C2CCN(C3=NS(=O)(=O)c4ccccc43)CC2)c(=O)n(C)c1=O | 2.2 | ·
COC(=O)C1(CO)NC(c2ccc(Cl)cc2)C2C(=O)N(C)C(=O)C21 (stereo not given) | -0.8 | 0.964
COC(=O)c1ccc(OC(=O)c2ccccc2)cc1 | -0.7 | -0.783
Cc1cc(-c2noc(-c3cc(C)on3)n2)no1 | 4.4 | ·
COc1ccc(-c2noc(COC(=O)c3c4ccccc4cc4ccccc34)n2)c(OC)c1 | 0.4 | ·
CCSc1ccsc1C1C(C#N)=C(N)N(c2cccnc2)C2=C1C(=O)CC(C)(C)C2 (stereo not given) | -0.7 | ·
CC(C)c1ccc(-n2nnc3ccccc3c2=O)cc1 | -1.1 | -0.127
S=c1[nH]nc(-c2cc(-c3ccccc3)n[nH]2)n1C1CC2C=CC1C2 (stereo not given) | -0.1 | -1.22
Cc1cc(Cl)nc2ccc(Cl)cc12 | 1.4 | -1.36
O=C(CSc1nc(O)cc(=O)[nH]1)c1ccc(O)cc1O | 1.6 | -0.638
N#Cc1cc(Cl)c2c(c1)OCCCO2 | 0.5 | ·
